NPYLR7 agonist: mosquito NPYLR7 agonism; activation, % at 10 µM; HEK293T NPYLR7/Galpha15, GCaMP6s calcium fluorescence; AID 1259423; 270,000 compounds, 0.15% hits; in the data active = activation above about 40%;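 note: 0% = vehicle and 100% = reference agonist at the receptor; some compounds past the cut are filed as inactive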
NPYLR7 agonist max-min: also measured in NPYLR7 agonist; calls as there; activation, %; measured here: Max-Min RFU normalised activation; some inactives read as strong as hits;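 span of the calcium signal over five minutes; 0% = vehicle and 100% = native peptide agonist; compound fluorescence can raise it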
* = called active by the depositor.

Preview:
SMILES	NPYLR7 agonist	NPYLR7 agonist max-min
Cc1cccc(CC(=O)Nc2c3c(nn2CC(=O)NCc2ccccc2)CSC3)c1	-2	0
CCOC(=O)c1cc(=O)c(-c2ccccc2)n[nH]1	4	3
COc1cccc(C2C(C(=O)OCCc3ccccc3)=C(C)NC3=C2C(=O)CCC3)c1 (configuration not stated)	-2	-9
CCCCN(Cc1cccn1Cc1ccc(Br)cc1)C(=O)CN(CCCOC)C(=O)C1CC1	-9	-7
CC1CN(CCC(=O)NCC2(N3CCOCC3)CCCC2)Cc2cc(Cl)ccc2O1 (configuration not stated)	6	2
c1ccc(COC2CCN(Cc3ccccn3)CC2)cc1	-1	0
O=C(Cc1ccsc1)N1CCOC(COCc2ccccc2F)C1 (configuration not stated)	26	37
COc1cccc(Cc2nc3c(c(N4CCOCC4)n2)CN(S(=O)(=O)c2ccc(NC(C)=O)cc2)CC3)c1	27	24
CC(C)n1nccc1NC(=O)C=C1CCCCC1	-5	-10
CCc1nc2n(n1)C(=O)C(C(c1ccc(C)cc1)N1CCN(C(C)=O)CC1)S2 (configuration not stated)	-3	-11
CN1CCC(N(Cc2cccnc2)Cc2ccco2)CC1	0	-1
CNC(=O)NC(=O)CN1CCN(c2ccc(F)cc2)CC1	3	0
CCCS(=O)(=O)CC(=O)NCc1coc(-c2ccc(C)cc2)n1	1	-1
CCn1ncc(C(=O)NCCSc2nc3ccccc3o2)c1C	5	-2
COCCCN(CC(=O)N(Cc1ccc(F)cc1)Cc1sccc1C)C(=O)Nc1cccc(F)c1	0	2
CCOc1ccc(S(=O)(=O)NCc2ccc3c(c2)OCO3)cc1C(C)(C)C	2	1
COc1ccccc1N1CCN(CCCNc2c(C)c(=O)n(C)c(=O)n2C)CC1	4	2
CN(C)S(=O)(=O)c1ccccc1CNC(=O)N1CCC(C(=O)Nc2ccccc2)CC1	3	3
CCCC1C(=O)CC(C#N)(C#N)C(C#N)(C#N)C1C (configuration not stated)	8	4

This part in full (from the top)
SMILES	NPYLR7 agonist	NPYLR7 agonist max-min
Cc1cccc(CC(=O)Nc2c3c(nn2CC(=O)NCc2ccccc2)CSC3)c1	-2	0
CCOC(=O)c1cc(=O)c(-c2ccccc2)n[nH]1	4	3
COc1cccc(C2C(C(=O)OCCc3ccccc3)=C(C)NC3=C2C(=O)CCC3)c1 (configuration not stated)	-2	-9
CCCCN(Cc1cccn1Cc1ccc(Br)cc1)C(=O)CN(CCCOC)C(=O)C1CC1	-9	-7
CC1CN(CCC(=O)NCC2(N3CCOCC3)CCCC2)Cc2cc(Cl)ccc2O1 (configuration not stated)	6	2
c1ccc(COC2CCN(Cc3ccccn3)CC2)cc1	-1	0
O=C(Cc1ccsc1)N1CCOC(COCc2ccccc2F)C1 (configuration not stated)	26	37
COc1cccc(Cc2nc3c(c(N4CCOCC4)n2)CN(S(=O)(=O)c2ccc(NC(C)=O)cc2)CC3)c1	27	24
CC(C)n1nccc1NC(=O)C=C1CCCCC1	-5	-10
CCc1nc2n(n1)C(=O)C(C(c1ccc(C)cc1)N1CCN(C(C)=O)CC1)S2 (configuration not stated)	-3	-11
CN1CCC(N(Cc2cccnc2)Cc2ccco2)CC1	0	-1
CNC(=O)NC(=O)CN1CCN(c2ccc(F)cc2)CC1	3	0
CCCS(=O)(=O)CC(=O)NCc1coc(-c2ccc(C)cc2)n1	1	-1
CCn1ncc(C(=O)NCCSc2nc3ccccc3o2)c1C	5	-2
COCCCN(CC(=O)N(Cc1ccc(F)cc1)Cc1sccc1C)C(=O)Nc1cccc(F)c1	0	2
CCOc1ccc(S(=O)(=O)NCc2ccc3c(c2)OCO3)cc1C(C)(C)C	2	1
COc1ccccc1N1CCN(CCCNc2c(C)c(=O)n(C)c(=O)n2C)CC1	4	2
CN(C)S(=O)(=O)c1ccccc1CNC(=O)N1CCC(C(=O)Nc2ccccc2)CC1	3	3
CCCC1C(=O)CC(C#N)(C#N)C(C#N)(C#N)C1C (configuration not stated)	8	4
CC(C)CC(C)N(C)C(=O)c1n[nH]c2ccccc12 (configuration not stated)	-4	-4
COc1ccc(-c2nccc3[nH]nc(-c4cccnc4)c23)cc1	18	12
Cn1c(=O)[nH]c(=O)c2c1nc(N1CCN(Cc3cccc(Cl)c3)CC1)n2Cc1ccccc1F	0	6
O=C(CSc1nnc2ccc3ccccc3n12)c1ccc2c(c1)OCO2	-1	-2
COc1cccc(CN(C)C(=O)C(C)Cc2c(C)nn(C)c2C)c1 (configuration not stated)	3	0
O=C1CN(C(=S)Nc2ccccc2F)CC2c3ccc(F)cc3CCN12 (configuration not stated)	30	14
O=C(NCC1CCCO1)C1CCN(C2CCN(Cc3cccnc3)CC2)CC1 (configuration not stated)	-1	-8
O=C(Cn1nc(-c2ccco2)c2sc(N3CCCCC3)nc2c1=O)OCc1ccccc1	-3	-7
COC(=O)C1=CC(C(=O)c2cccs2)=NN(c2cccc(Cl)c2)C1C(=O)OC (configuration not stated)	8	8
CCOC(=O)CNC(=O)N1CCCC(C(=O)c2cccc(OC(C)C)c2)C1 (configuration not stated)	-5	-5
CCN1CCC(C(=O)NC(C)c2ccc(OC)c(OC)c2)CC1 (configuration not stated)	12	4
CCC(C(=O)N(CC(=O)N1c2ccccc2-n2cccc2C1c1ccc(OC)cc1)C1CC1)c1ccccc1 (configuration not stated)	1	5
COc1cc(C)c(CC/C(C)=C/C=C/C(C)=O)c(C)c1C	3	5
COc1ccccc1C(=O)NC1CCN(c2ccccc2C(=O)NCc2ccccc2)CC1	-1	-1
CCOc1ccccc1N1CCN(S(=O)(=O)c2cc(Cl)c(C)cc2OC)CC1	-1	18
CC(C)CCn1c(N2CCN(Cc3c(Cl)cccc3Cl)CC2)nc2c1c(=O)[nH]c(=O)n2C	0	30
CSc1ccccc1NC(=O)Cc1csc(NC(=O)NC2CCCCC2)n1	-2	-1
CCN(Cc1ccc(C)o1)C(=O)[C@@H]1C[C@H](N)CN1C	4	7
CN(Cc1nccn1C)C(=O)CCSCc1ccc(F)cc1	-1	-1
CCC1CN(C(=O)c2ccccc2Cl)CCC(=O)N1Cc1ccccc1 (configuration not stated)	4	2
O=S(=O)(CC1CCOC1)NCC(O)c1ccccc1 (configuration not stated)	5	5
Cc1cc(NC(=O)CCNC(=O)C2CNCC(=O)N2)ccc1F (configuration not stated)	-4	-5
Cc1ccccc1-n1c(C)nnc1SCc1nc(C(=O)NC(c2ccccc2)c2ccccc2)cs1	-2	6
COc1ccccc1NC(=O)C1CC(=O)N(C)C(=Nc2cccc(F)c2)S1 (configuration not stated)	1	0
Cc1ccc(N2C(c3ccccc3)C(C(=O)c3ccccc3)S2(=O)=O)cc1 (configuration not stated)	12	7
COc1ccc(OC)c(C(=O)c2ccc(C(=O)NCC3Cc4cccc(-c5ncccn5)c4O3)cc2)c1 (configuration not stated)	1	-4
O=C(Nc1cccc(O)c1)c1cnn2c1NC(c1ccc(F)cc1)CC2C(F)(F)F (configuration not stated)	1	-2
CCc1ccc(-c2ccc(SCC(=O)N3CCCCCC3)nn2)cc1	16	11
C/C=C/CC(=O)N(CC)Cc1cc(Cl)ccc1OC	-3	-5
COC(=O)C1=C(C)N(C)C(C)=C(C(=O)OC)C1c1ccc(Cl)cc1Cl	-1	1
Cc1cc(C)n(CCCNc2nc(CN3CCOCC3)nc3sc4c(c23)CCC4)n1	1	12
CCc1nc2ccc(C(=O)NCCNC(C)=O)cn2c1N(CC)Cc1cccc(Br)c1	15	10
Cn1ccnc1CN1CCN(C(=O)CC(c2ccccc2)c2ccccc2F)CC1 (configuration not stated)	5	5
CCc1cccc(NC(=O)CSc2nccn3nc(-c4ccc(C)cc4)cc23)c1	-1	-5
CN(Cc1ccccc1)C(=O)C1(C)CCN1C(=O)Cc1ccc(-c2ccccc2)cc1 (configuration not stated)	3	2
Cc1sc[n+](CC(=O)OC2CC(C)CCC2C(C)C)c1C (configuration not stated)	4	2
CCC1c2ccsc2CCN1C(=O)c1cccc(S(=O)(=O)N2CCCCC2)c1 (configuration not stated)	-3	-2
Cc1c(C(=O)NCc2ccco2)sc(=O)n1Cc1ccccc1F	11	4
CCCC(C)(C)C(=O)N1CCC1(C)C(=O)Nc1cccc2ccccc12 (configuration not stated)	3	-1
Cc1nc(C(C)NC(=O)CCc2nnc(-c3ccsc3)o2)cs1 (configuration not stated)	-3	-5
O=c1oc2cc(Cl)c(O)c([N+](=O)[O-])c2s1	-11	-12
The results go on:
SMILES	NPYLR7 agonist	NPYLR7 agonist max-min
COCCN(Cc1csc(COc2cc(Cl)ccc2Cl)n1)C(=O)C1CC1	21	32
N#Cc1ccccc1OCc1cccc(C(=O)O)c1	2	-1
O=C(CC12CC3CC(CC(C3)C1)C2)OCCNC(=O)c1cccnc1	-16	-21
COc1ccccc1C1NC=C([N+](=O)[O-])C=C1[N+](=O)[O-] (configuration not stated)	15	14
O=C(O)c1cccnc1CN1CCCC(c2nc3ccccc3o2)C1 (configuration not stated)	1	-5
CCCCC1c2c(n(CCC)c(=O)[nH]c2=O)NC1C(F)(F)F (configuration not stated)	-7	-12
Cc1ccc(-n2c(SCc3nc(C(=O)NCCN4CCCCC4)cs3)nnc2-c2cccnc2)cc1	-2	-2
Cc1cc(C(F)(F)F)n2nc(C(=O)N3CC(c4ccncc4)C3)cc2n1	0	-2
CCCc1cc(=O)n(CC(=O)Nc2ncccc2C)cn1	19	10
O=[N+]([O-])CC1c2ccccc2C=CN1Cc1c(Cl)cccc1Cl (configuration not stated)	0	-2
CC(=O)N1C=Cc2ccccc2C1CC(=O)OCc1cc(=O)oc2c(C)c(O)ccc12 (configuration not stated)	6	9
O=C1CCC(C(=O)N2CCN(Cc3cccc(-c4noc(-c5cccc(C(F)(F)F)c5)n4)c3)CC2)=NN1	31	21
COc1ccc(NC(=O)c2ccc(CSc3nnc(Cc4ccccc4)n3-c3ccc(C)cc3)cc2)cc1OC	-2	-1
Cc1ccc(CN(Cc2ccc3c(c2)OCO3)C(=O)CN(CCN2CCOCC2)C(=O)Nc2ccccc2C(F)(F)F)o1	2	15
Cc1ccccc1NC(=O)CSc1nc(=O)n(Cc2cccnc2)c2c1CCC2	16	8
CCc1nccn1CCC(=O)N1Cc2cnn(CCO)c2C1	1	-7
CC(C)N(Cc1nnc(-c2ccccc2Cl)o1)C(=O)c1ccccc1	2	-2
O=S1(=O)N=C(Nc2ccc(Br)cc2)c2ccccc21	-12	-22
Nc1cncc(-n2ccnc2-c2ccccn2)c1	3	4
COC(=O)C1=C(C)N(C)C(=O)NC1c1ccc(C)cc1 (configuration not stated)	9	13
COc1ccc(-n2c(CCC(=O)NCc3ccc(C)o3)ccc2-c2ccc(Cl)cc2)cc1	-1	8
CN1CCN(C(CNS(=O)(=O)c2cccc(F)c2)c2ccsc2)CC1 (configuration not stated)	1	-8
COc1cc(C=C2SC(=S)N(C(C)C)C2=O)ccc1O	21	13
CN1CCCC2(CCN(c3nc(-c4ccncc4)nc4c3CNC4)C2)C1=O (configuration not stated)	4	1
O=C(CCN(Cc1ccco1)c1nc(C2CC2)nc2cc(Cl)ccc12)N1CCN(c2ccccc2F)CC1	17	15
CN(C)C1CCN(Cc2nnc(CC3CCNCC3)n2C)C1 (configuration not stated)	17	11
CCNC(=O)CN(CC)C(=O)c1sc2nc(-c3ccco3)nc(C)c2c1C	4	2
CCN1CCCC(CN(C)Cc2ccc(-n3ccnc3)cc2)C1 (configuration not stated)	-1	-4
COc1ccccc1C1=NOC(CN(Cc2ccccc2Cl)C(=O)C2CCC2)C1 (configuration not stated)	23	26
COc1cc(CNC(=O)CCCCCCC(C)C)ccc1O	3	-26
CSc1nnc2c(n1)OC(c1ccc(OCC(=O)O)cc1)Nc1ccccc1-2 (configuration not stated)	-6	-8
CCn1c(NNC(=O)C2CC3CCC2C3)nc2ccccc2c1=O (configuration not stated)	1	-1
CC(OCC1CCCCO1)C(=O)N1CCCC1C1CCCN1C (configuration not stated)	6	3
C=C(C)CN1N=C(C)Cn2c1nc1c2c(=O)n(Cc2ccc(F)cc2)c(=O)n1C	-8	-8
O=C(Nc1ccc(-n2cccn2)cc1)C1CCN(CC2CCOC2)CC1 (configuration not stated)	9	4
CC(=O)Nc1ccc(-c2ccnc3n[nH]c(-c4ccc(Cl)cc4)c23)cc1	6	6
COc1ccc(OC)c2sc(N(CC3CCCO3)C(=O)c3cc(C)nn3C)nc12 (configuration not stated)	0	-1
COc1cccc(C(=O)N2CCC(c3nc(C)cs3)CC2)c1OC	19	13
CCOC(=O)C(C)NC(=O)N1CCCC1c1cc(CC)no1 (configuration not stated)	-2	-3
COc1ccc(Cl)cc1C(=O)Nc1cccc(-c2nc3cc(Cl)ccc3o2)c1C	-3	-4
O=C(NCc1ccc(F)cc1)c1csc(CSc2nnc(-c3ccncc3)n2-c2cccc(Cl)c2)n1	-14	-16
O=c1ccc(-c2ccco2)nn1CCNS(=O)(=O)c1ccc(F)c(C(F)(F)F)c1	-2	-4
CCC1(c2ccccc2)NC(=O)N(CC(=O)Nc2ccc(S(=O)(=O)N(C)C(C)C)cc2)C1=O (configuration not stated)	4	-3
Cc1ccc(S(=O)(=O)NCCOC(=O)Nc2sc(=S)n(C)c2C)cc1	2	0
O=C(CC12CC3CC(CC(C3)C1)C2)NNC(=O)c1ccc(Cn2cccn2)cc1	-3	1
CCCCSc1nc2c([nH]c3ccccc32)c(=O)n1CCOC	-2	-1
Cc1nc2ccnn2c(C)c1C(=O)O	2	0
Cc1ccc2oc(Cc3cccc(N)c3)nc2c1	2	0
CCS(=O)(=O)N1CCOC(CCCc2ccccc2)C1 (configuration not stated)	0	-6
Cc1ccc(C(=O)OCc2nc(-c3cccs3)no2)s1	15	13
O=C(Nc1ccc(SC(F)F)cc1)C1CCOCC1	5	3
Cc1ccc(NC(=O)c2cc(-c3cccs3)nn2-c2cccc(C)c2)cc1	-1	6
Cn1c(=O)[nH]c(=O)c2c1nc(N1CCCCC1)n2CCSc1nc2ccccc2[nH]1	6	5
CCn1nc(C)cc1C(=O)Nc1sccc1C(=O)NC	3	11

Screens: PubChem BioAssay, Fisher Drug Discovery Resource Center

A portion of the library. The share of hits here may be higher or lower than overall.
